RecA splice inh: Mtb RecA intein splicing inhibitors, primary screen, biochemical, fluorescence, HTS; cell-free RecA intein splicing; inhibition, %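 (about 9 µM by stock and volumes)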; hit rate 0.75% among 290,000; AID 2221, 2009; in the data active = inhibition above about 30%; inconclusive = no clear call, values can overlap the other calls;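 also: 0% = vehicle wells and 100% = reference inhibitor control wells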
Target sequence (P9WHJ3 whole entry, looked up, canonical isoform): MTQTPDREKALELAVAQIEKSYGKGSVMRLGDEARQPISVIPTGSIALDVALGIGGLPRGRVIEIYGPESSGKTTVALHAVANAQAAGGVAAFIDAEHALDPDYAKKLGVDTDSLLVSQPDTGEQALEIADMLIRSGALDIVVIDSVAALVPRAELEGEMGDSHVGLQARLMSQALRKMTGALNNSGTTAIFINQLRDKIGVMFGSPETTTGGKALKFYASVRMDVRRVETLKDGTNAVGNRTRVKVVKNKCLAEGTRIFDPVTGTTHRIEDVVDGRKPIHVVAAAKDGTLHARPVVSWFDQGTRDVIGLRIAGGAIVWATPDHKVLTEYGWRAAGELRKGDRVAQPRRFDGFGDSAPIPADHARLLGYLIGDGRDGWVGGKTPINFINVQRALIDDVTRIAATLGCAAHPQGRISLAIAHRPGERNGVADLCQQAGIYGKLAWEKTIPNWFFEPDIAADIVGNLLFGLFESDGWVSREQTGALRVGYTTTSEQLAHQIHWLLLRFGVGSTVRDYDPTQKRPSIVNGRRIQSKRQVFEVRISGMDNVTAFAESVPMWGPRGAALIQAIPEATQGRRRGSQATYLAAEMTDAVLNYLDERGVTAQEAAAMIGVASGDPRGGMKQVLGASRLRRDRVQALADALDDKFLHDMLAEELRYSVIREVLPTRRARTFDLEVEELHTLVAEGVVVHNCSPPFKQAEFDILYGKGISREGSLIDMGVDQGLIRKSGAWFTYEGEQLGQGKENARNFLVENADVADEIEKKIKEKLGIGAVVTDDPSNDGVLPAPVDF
Mtb betalactam: beta-lactam sensitization of Mtb H37Rv, H37Rv; M. tuberculosis H37Rv growth with meropenem, percent inhibition; hits of this screen are not shown here; hit rate 0.27% among 330,000; inhibition, % at 25 µM; AID 434955, 2010;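 active = about 74% or more and at least 40 points above the plate without the antibiotic, then above 30% in a dose series; inconclusive = first-round hits that could not be retested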;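 also: growth measured after seven days incubation then overnight dye step; 0% = bacteria only wells and 100% = bacteria with antibiotic; twin plates without the antibiotic show which effects depend on it; some results filed as inactive read as strong as hits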
YopH inh: YopH tyrosine phosphatase inhibitors, primary screen, biochemical, fluorescence Ex485/Em525 | YopH tyrosine phosphatase [Yersinia enterocolitica] | hit rate 0.16% among 140,000 | inhibition, %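 (about 10 µM by stock and volumes)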;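 active = inhibition of 50% or more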;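 also: controls were vehicle for no effect and minimum signal wells for full effect; inactives centre near -20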
Mtb growth: M. tuberculosis H37Rv growth inhibitors, H37Rv strain (AID 1626). M. tuberculosis H37Rv growth inhibition; higher % means a stronger effect. inhibition, % at 10 µM; hits with a dose series show IC50 in µM. hit rate 0.95% among 220,000;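 active = confirmed in a dose series; inconclusive = inhibition above 80% but not taken into the dose series; inactive = below 80% or under 30% at every dose of the series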;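 also: bacteria incubated seven days before Alamar blue readout; 0% = bacteria only wells and 100% = bacteria with antibiotic wells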
Arbovirus inh: antivirals against arbovirus infection, primary screen, cell-based, full library, 10K replicate subset; arbovirus infection cell-based antiviral screen; inhibition, % at 10 µM; hit rate 0.37% among 200,000; AID 1251, 2008;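 active = inhibition from about 30%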;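 also: bluetongue infection of BSR cells; cell survival read as ATP light after 72 h; 0% = infected wells without compound and 100% = uninfected wells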
Arbovirus inh repeat: second read-out of Arbovirus inh, no call of its own (marks repeat the call); inhibition, %; measured here: 10K subset replicate screen; many hits read low in the repeat;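 first of two repeat runs on a subset; 0% = infected and 100% = uninfected wells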
Active calls of the source: *; ? = inconclusive; · = no result given. Not all compounds are listed. The share of hits here may be higher or lower than overall.

SMILES | RecA splice inh | Mtb betalactam | YopH inh | Mtb growth | Arbovirus inh | others
COc1ccccc1NC(=O)CCN1C(=O)/C(=C\c2cc(OC)c(OC)c(OC)c2)SC1=S | 0.6 | 2.1 | · | · | ·
COc1ccc(S(=O)(=O)NC2CC2)cc1Cl | 0.0 | -6.1 | · | · | ·
C=CCOCCN(CC)CC | -0.3 | 1.3 | · | -12.3% | ·
CCOC(=O)c1c(NC(=O)C2C3C=CC(CC3)C2C(=O)O)sc(C)c1CC (stereo not given) | 2.4 | 5.5 | -19.6 | 9.8% | -1.2
O=C(c1ccccc1)c1ccc2nc(-c3ccc(NC(=O)c4ccccc4F)cc3)[nH]c2c1 | -1.1 | 37.7 | -40.7 | 2.9% | -12.1
CC(=O)N1CCN(CCN=CC2=C(O)CC(C)(C)CC2=O)CC1 | -4.3 | -11.2 | -24.3 | -3.3% | 10.5
CN(C)C(=O)CN(c1ccc(F)c(Cl)c1)S(C)(=O)=O | 5.4 | 6.0 | -6.3 | -5.2% | -0.8
O=C(c1ccc(S(=O)(=O)N2CCCCC2)cc1)N1CCN(c2ccccc2)CC1 | 2.4 | -15.0 | -4.1 | 3.9% | 2.1
CC1CCc2sc(C(=O)NNC(=S)NCC3CCCO3)cc2C1 (stereo not given) | -0.8 | -16.6 | · | · | ·
COc1ccc(/C=N/Nc2nc3ccccc3c(=O)[nH]2)cc1 | -3.1 | -3.2 | -33.8 | · | 3.9
Fc1ccc(-c2n[nH]c(=S)n2CC2CCCO2)cc1 (stereo not given) | -5.4 | -4.6 | -40.8 | 4.0% | 2.4
O=C(Cc1ccccc1)Oc1coc(CSc2ncccn2)cc1=O | -4.1 | 30.0 | · | 1.6% | -2.3
Cc1ccc2nc(SCC(=O)c3c(N)n(C)c(=O)n(C)c3=O)[nH]c2c1 | -0.4 | -8.9 | · | -3.9% | 0.2
CCN1C(=O)N[C@@H](c2cccc(C(F)(F)F)c2)[C@H](C(C)=O)[C@H]1C | -1.8 | -9.9 | · | 5.7% | ·
O=C(Nc1ccccc1)c1cccnc1N1CCCC1 | -1.2 | 8.2 | -10.1 | -7.3% | -1.0

An excerpt from above in order of heavy-atom count, highest first.
SMILES | RecA splice inh | Mtb betalactam | YopH inh | Mtb growth | Arbovirus inh | others
COc1ccccc1NC(=O)CCN1C(=O)/C(=C\c2cc(OC)c(OC)c(OC)c2)SC1=S | 0.6 | 2.1 | · | · | ·
Fc1ccc(-c2n[nH]c(=S)n2CC2CCCO2)cc1 (stereo not given) | -5.4 | -4.6 | -40.8 | 4.0% | 2.4
COc1ccc(S(=O)(=O)NC2CC2)cc1Cl | 0.0 | -6.1 | · | · | ·

Additional results
SMILES | RecA splice inh | Mtb betalactam | YopH inh | Mtb growth | Arbovirus inh | others
O=C(NCc1ccccc1)C1CCC1 | -0.2 | -4.0 | 3.8 | 1.2% | 1.7
COc1ccc(NS(=O)(=O)c2cccc(C(=O)NCC(c3ccccc3OC)N3CCCC3)c2)cc1 (stereo not given) | 1.5 | -4.5 | · | · | ·
COc1ccc2c(c1OC)C(=O)OC2Nc1nc(-c2ccccc2)cs1 (stereo not given) | -1.9 | 42.3 | -18.3 | 43.1% | -17.0
CCOC(=O)N1CCC(NC(=O)C(CC(C)C)NC(=O)C2CCC(C)CC2)CC1 (stereo not given) | -2.6 | ? | -18.2 | 2.3% | -4.2
NNc1nc(-c2ccccc2)c2cc(Cl)ccc2n1 | -5.2 | -1.0 | · | -1.9% | ·
COc1ccccc1N1CCN(C(=O)C2CCCCN2S(=O)(=O)c2ccc(C)cc2)CC1 (stereo not given) | 0.3 | -8.8 | · | -3.3% | ·
O=C1CN(Cc2nc3cc(Cl)ccc3c(=O)[nH]2)CCN1 | -3.1 | -5.6 | · | 11.1% | ·
NC(=O)C(=O)N/N=C/c1c(F)c(F)c(F)c(F)c1F | 7.2 | -11.6 | · | -4.7% | -7.5
Cc1cc(C)n(CC(=O)NNC(=O)c2cccc(C(F)(F)F)c2)n1 | -0.8 | -1.6 | · | · | ·
Cc1ccc(C)c(S(=O)(=O)NCc2cccnc2)c1 | 0.5 | -6.5 | -27.7 | -12.3% | 0.3
O=C(NCCc1ccccc1)C1(c2ccccc2)CCCC1 | 6.0 | -7.2 | · | · | ·
COc1cccc(CNC(=O)CCS(=O)(=O)c2cccc3nonc23)c1 | 2.4 | 74.2 | -0.7 | 2.5% | 2.6 | Arbovirus inh repeat=2.0
COc1cccc(NC(=O)c2oc3ccccc3c2NC(=O)C(C)(C)C)c1 | · | -0.4 | -45.1 | 3.6% | -8.7
CC(=O)c1ccc(NC(=O)c2cccc(S(=O)(=O)N3CCN(C)CC3)c2)cc1 | 0.8 | -5.5 | · | · | ·
COc1cc(/C=C(\C#N)c2nc3ccccc3[nH]2)c([N+](=O)[O-])cc1OCc1ccccc1 | 13.4 | 5.9 | -30.8 | 24.1% | -4.8
CCC(=O)Nc1nc(C)c(-c2csc(Nc3cccc(C(=O)O)c3)n2)s1 | -7.8 | 22.7 | · | 6.8% | 4.0
O=C1COc2ccc(C(=O)CSc3nnc(Cc4cccs4)n3-c3ccc(Cl)cc3)cc2N1 | 10.3 | 70.5 | -11.5 | 5.1% | -24.6
Cn1c(SCC(=O)Nc2ccc(Cl)cc2F)nnc1-c1ccco1 | 1.1 | -6.0 | · | · | ·
CC(C)Cc1nnc(NC(=O)CCC(=O)N2CCN(CCOC(c3ccccc3)c3ccccc3)CC2)s1 | 0.5 | 70.2 | -12.9 | 27.6% | -31.9
COc1ccccc1NC(=O)c1ccc(NC(=O)COC(=O)CCC2CCCC2)cc1 | · | 12.6 | -30.6 | 1.1% | 0.4
CCC(=O)N1N=C(c2c(O)n(CCc3ccccc3)c(=O)[nH]c2=O)CC1c1ccc(OC)c(OC)c1 (stereo not given) | 10.8 | 82.6 | · | 32.1% | ·
CCn1c(CNS(=O)(=O)c2ccc(Br)cc2)nnc1SC | 0.0 | -1.1 | · | · | ·
O=C(NC1CCCCC1)C(c1ccc2ncccc2c1)N(Cc1ccc(F)cc1)C(=O)c1cccs1 (stereo not given) | 7.3 | 1.9 | -15.6 | -3.1% | -8.4
CC(=O)c1c(-c2ccccc2)c2cc(Cl)ccc2n(C)c1=O | 0.1 | 3.7 | · | · | ·
CCCCN(CC)CCCNC(=O)CC1Oc2ccccc2NC1=O (stereo not given) | -2.0 | -5.9 | -26.3 | 2.5% | 8.5
NC(=O)c1noc(C(=O)N(CC(=O)NC2CCCC2)Cc2ccc3c(c2)OCO3)c1N | · | 4.2 | -8.2 | 3.1% | -0.3
COc1ccccc1NC(=O)c1ccc(NC(=O)COC(=O)CC(NC(=O)c2ccccc2Cl)c2ccccc2)cc1 (stereo not given) | · | 11.8 | -8.9 | 5.3% | 1.4
CC(C)(C)CC(=O)Nc1cc(S(=O)(=O)N2CCOCC2)ccc1N1CCCC1 | -2.7 | 1.2 | · | -1.4% | ·
CCc1ccc(C(=O)COC(=O)c2ccco2)cc1 | 0.8 | -7.8 | · | · | ·
O=C(c1cc(F)ccc1F)C1CCCN(Cc2cc(Cl)ccc2O)C1 (stereo not given) | 11.6 | 5.8 | · | · | ·
CCCCn1c(=O)c(C(=O)Nc2ccc(C)cn2)c(O)c2ccccc21 | 1.3 | 7.0 | · | · | ·
Cc1ccc(NC(=O)C2CCN(S(=O)(=O)c3cccc4nonc34)CC2)nc1 | -5.2 | -5.4 | 41.4 | -4.7% | 0.7
O=C1C(Nc2cccc(O)c2)=C(N2CCCCC2)C(=O)c2ccccc21 | 79.5* | 4.5 | 80.7* | 1.6% | 2.0
Nc1nc(SCc2ccc(Cl)cc2)[nH]c(=O)c1-c1ccccc1 | 0.2 | 0.0 | -23.5 | -3.1% | 2.8
CCOc1ccc2[nH]c(=O)c(CN(Cc3cccnc3)C(=O)Nc3ccccc3OC)cc2c1 | 3.3 | -5.9 | -43.0 | -1.1% | -10.7
O=C(NCCN1C(=O)S/C(=C\c2ccccc2)C1=O)c1cc(S(=O)(=O)N2CCOCC2)c(Cl)cc1Cl | 1.1 | -10.8 | -25.8 | 5.5% | 1.8
C=C(C)CNC(=S)NN=C1c2ccccc2-c2ccccc21 | -0.6 | 2.6 | · | 7.2% | 9.3
CC(=O)c1cc(F)c(N2CCN(C(=O)c3ccco3)CC2)cc1C | 2.2 | -2.1 | -18.5 | -14.0% | -0.2
O=C(CSc1nnc(-c2ccncc2)n1C1CCCCC1)Nc1ccccc1 | -0.1 | -4.6 | -35.2 | -6.9% | -8.1
CCc1noc(C)c1C(=O)OCC(=O)NC(=O)c1ccccc1 | 0.9 | ? | · | · | ·
Cc1ccc(NC(=O)CCC(=O)N/N=C/c2coc3ccc(F)cc3c2=O)cc1 | -4.1 | 0.5 | · | · | ·
Cc1ccc([N+](=O)[O-])cc1NC(=O)CN(C1CCCCC1)S(=O)(=O)c1ccc(Cl)cc1 | 2.4 | · | -12.3 | 4.4% | 6.3
COC(=O)c1c(NC(=S)Nc2cc(OC)c(Cl)cc2OC)sc2c1CCCCC2 | -2.4 | 2.8 | -34.8 | 2.0% | -2.8
O=C(Nc1cccc(-c2cn3ccccc3n2)c1)c1ccccc1 | 2.9 | 53.4 | · | 2.9% | -9.5
COc1ccc(Cl)cc1S(=O)(=O)NCCCn1ccnc1 | -2.6 | -12.2 | · | · | ·
Cc1cc(C)cc(N2C(=O)NC(=O)/C(=C\C=C\c3ccco3)C2=O)c1 | -0.3 | -6.1 | -20.4 | 16.0% | 0.6
O=C(NCCCN1CCOCC1)C1CCCN(S(=O)(=O)N2CCCCC2)C1 (stereo not given) | -0.4 | -9.9 | · | · | ·
O/N=C1\CCSc2ccc(F)cc21 | 0.5 | 0.0 | · | -2.1% | ·
Fc1ccccc1Cc1nnc2n1N=C(c1ccc(Cl)cc1)CS2 | -1.6 | -4.5 | -7.6 | -8.8% | 4.3
O=C1CSC(=Nc2ccc(Cl)cc2)N1Cc1cccnc1 | 4.4 | -7.5 | · | -1.2% | ·
O=C(NC(=S)N1CCN(c2ccc([N+](=O)[O-])cc2)CC1)c1ccco1 | 2.9 | 4.0 | · | 0.5% | 0.7
CCN(CC)CC(=O)Nc1c(C#N)cnn1-c1ccccc1 | -2.6 | -4.3 | · | · | ·
O=C(c1cccs1)N(Cc1cccc(F)c1)C1CCS(=O)(=O)C1 (stereo not given) | -2.9 | -0.7 | · | · | ·
Cc1nnc(NC(=O)CSc2nnc(NC(=O)C(C)(C)C)s2)s1 | · | -0.5 | · | 5.6% | -2.7
CC(C)CCn1cnc2c(cnn2-c2ccc(F)cc2)c1=O | 0.3 | -5.2 | -8.3 | -2.6% | 5.3
COc1ccc(N=C2SC(CC(=O)Nc3ccccc3OC)C(=O)N2Cc2ccco2)cc1 (stereo not given) | -4.8 | 8.2 | -19.0 | 4.7% | -0.5
CC(=O)c1sc(N2CCOCC2)nc1-c1ccccc1 | -6.1 | -8.6 | · | -1.9% | 8.0
CCc1ccc(OCC(O)CN2CCN(c3ccccn3)CC2)cc1 (stereo not given) | -1.9 | -13.1 | · | · | ·
Cc1cc(C)n2ncc(C(=O)Nc3ccc4c(c3)OCO4)c2n1 | -12.5 | 9.8 | -13.1 | 3.4% | -11.1
CC(Oc1ccc(Cl)cc1)c1ccnc(N)n1 (stereo not given) | -0.2 | 5.0 | · | 13.3% | 4.9

2 entries picked at random from those above, as already listed:
SMILES | RecA splice inh | Mtb betalactam | YopH inh | Mtb growth | Arbovirus inh | others
O=C(Cc1ccccc1)Oc1coc(CSc2ncccn2)cc1=O | -4.1 | 30.0 | · | 1.6% | -2.3
C=CCOCCN(CC)CC | -0.3 | 1.3 | · | -12.3% | ·

Going on with the list.
SMILES | RecA splice inh | Mtb betalactam | YopH inh | Mtb growth | Arbovirus inh | others
CN(C(=O)COC(=O)c1ccc(Cl)c(N)c1)c1ccccc1 | 1.2 | -5.5 | · | 5.4% | -1.0
Cn1c(C(=O)NCCCN2CCOCC2)cc2c(=O)n(C)c3ccccc3c21 | 1.9 | 3.5 | -43.5 | -1.8% | -0.1 | Arbovirus inh repeat=-2.7
CCOc1cccc(CN2CCCC(CNC(=O)c3cccc(OC)c3OC)C2)c1 (stereo not given) | 0.1 | -8.0 | · | · | ·
O=C(N/N=C/c1ccccc1)c1ccc(CN2C(=O)c3cccc4cccc2c34)cc1 | -15.6 | -2.0 | -20.1 | -1.6% | -30.8

In the list so far, 2 have a CF3 group.
SMILES | RecA splice inh | Mtb betalactam | YopH inh | Mtb growth | Arbovirus inh | others
CCN1C(=O)N[C@@H](c2cccc(C(F)(F)F)c2)[C@H](C(C)=O)[C@H]1C | -1.8 | -9.9 | · | 5.7% | ·
Cc1cc(C)n(CC(=O)NNC(=O)c2cccc(C(F)(F)F)c2)n1 | -0.8 | -1.6 | · | · | ·
